ClpP mod: qHTS Assay for Activators of ClpP. Potency, µM (titrated, usually from 57.5 µM), for inactives: at the top dose activity change, negative = active. 1.9% of 340,000 active. ATP-dependent Clp protease proteolytic subunit (Bacillus subtilis (strain 168)), P80244. purified B. subtilis ClpP, FRET peptide cleavage, 20 min. AID 651965, 2013; active = well fitted falling curve with a large enough effect; inconclusive = small, poorly fitted or top-dose-only effect; inactive = no such curve, though single readings can be large or run the other way; further: potency means the concentration at half of the fitted maximal effect; the source files actives as falling curves though it sought activators and does not explain the sign; nearly all actives have a fitted effect of over 65% in size; many hits overshoot -100%
Target sequence (P80244 whole entry, looked up): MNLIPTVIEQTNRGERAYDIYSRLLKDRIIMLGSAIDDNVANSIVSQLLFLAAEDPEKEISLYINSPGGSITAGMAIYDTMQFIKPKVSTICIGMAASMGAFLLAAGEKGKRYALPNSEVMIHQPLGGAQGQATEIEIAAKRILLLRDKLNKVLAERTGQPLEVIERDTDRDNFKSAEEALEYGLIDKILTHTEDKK
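FRET quenching reversal measured ClpP activation: 10 microg/mL B. subtilis ClpP at pH 8 with the FRET-FV decapeptide, read at 430 nm after 320 nm excitation. The 20-min minus 0-min signal was scaled between DMSO/no-enzyme wells and ADEP (5.8 microM final).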
TRPML1 inh: blocks the human TRPML1 channel. Q9GZU1. TRPML1-inducible cells, Ca2+ dye fluorescence, FDSS; stronger effect = lower value; inhibition of EC80 agonist-evoked calcium signal. activity change, negative = inhibition, % (test concentration not listed). 0.02% of 390,000 active; in the data active means activity change below about -50%; inconclusive means about -30% to -50%; inactive means above about -30%;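 further: stimulus is agonist 54-4 at its EC80 concentration; on the % scale 0 is the no-effect control and ±100 the full control effect; compound concentration not given in the record; the text of the record puts the active cut at -80%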
Target sequence (Q9GZU1 whole entry, looked up): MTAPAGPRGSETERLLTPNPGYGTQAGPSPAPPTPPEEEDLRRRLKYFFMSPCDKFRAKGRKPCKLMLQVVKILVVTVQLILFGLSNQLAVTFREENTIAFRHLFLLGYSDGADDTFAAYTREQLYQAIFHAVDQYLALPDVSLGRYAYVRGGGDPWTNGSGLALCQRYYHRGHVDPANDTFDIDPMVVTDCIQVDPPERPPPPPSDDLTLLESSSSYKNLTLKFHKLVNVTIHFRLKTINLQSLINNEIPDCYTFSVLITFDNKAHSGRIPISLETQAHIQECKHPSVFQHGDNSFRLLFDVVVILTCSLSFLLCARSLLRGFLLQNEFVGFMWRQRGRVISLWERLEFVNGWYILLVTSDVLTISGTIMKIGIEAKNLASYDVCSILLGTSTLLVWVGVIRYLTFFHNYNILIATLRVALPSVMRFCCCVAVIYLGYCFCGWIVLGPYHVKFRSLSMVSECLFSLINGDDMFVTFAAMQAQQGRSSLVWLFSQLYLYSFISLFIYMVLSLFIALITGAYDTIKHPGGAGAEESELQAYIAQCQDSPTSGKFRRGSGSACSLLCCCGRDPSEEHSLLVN
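Calcium fluorescence in TRPML1-DL cells induced overnight with Tet: a 110 s read after compound pin addition, then a 110 s antagonist read after challenge with 54-4 at 4 uM final (EC80).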
TRPV1 potentiator: enhances activation of the human vanilloid receptor TRPV1. Q8NER1. TRPV1-expressing cells, Fluo-8 calcium influx, capsaicin EC20 potentiation; host cell line not named in the record; control for the full effect not named in the record. potentiation, % at 8.33 µM. 0.02% of 320,000 active; active means potentiation above 80%; inconclusive means 30% to 80%; inactive means below 30%; further: 0% is about no effect
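TRPV1-expressing cells were cultured overnight at 35.5C and loaded with Fluo-8 calcium dye for 40 to 90 min at room temperature. After a 10 s baseline, compound was added and calcium influx was read kinetically for 3 min (ex 480/em 520 nm).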
gsp ag: activates gsp, the McCune-Albright syndrome mutation; gsp mutant cells, cAMP HTRF, 30 min; control for the full effect not named in the record; Potency, µM (highest dose often 76.9 µM), inactives show top-dose activation (cAMP increase), usual class: activators; 0.13% of 340,000 active; AID 624287; active = well fitted activation curve with a large enough effect; inconclusive = small, poorly fitted or top-dose-only effect, or another doubt; inactive = no such curve, though single readings can be large or run the other way; cell line not stated here;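 further: phosphodiesterase inhibitor Ro 20-1724 added with compounds to block cAMP breakdown; potency means the concentration at half of the fitted maximal effect; nearly all actives have a fitted effect of over 60% in size; about a fifth of the inactives were tested at one dose only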
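Cells stably selected in G418 were plated at 2000/well, grown 16-24 hr, then given compounds in DMSO with the PDE inhibitor […] (300 uM solution added) for 30 min at 37C; cAMP was read by HTRF.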
Menin MLL FP FL: inhibitors of human menin-MLL interaction, wild-type MLL peptide. FP activity change, % at 61.4 µM. Fluorescence polarization, fluorescein-MLL peptide displacement from menin. 290,000 tested, under 10 active; inconclusive = falling polarisation curve, or a change in total fluorescence; inactive = total fluorescence flat and polarisation flat or rising; no compound was filed as active; the % refers to the polarisation; negative = inhibition;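 further: % of control where 0% means no effect; inhibitors lower the polarisation; unlabelled MLL peptide was the positive control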
gsp antag: antagonizes gsp, the McCune-Albright syndrome mutation | 0.4% of 340,000 active | Potency, µM (highest dose often 76.9 µM), for the others: at the highest dose activity change, negative = inhibition, hits mostly inhibitors | gsp-mutant cells, cAMP HTRF, 30 min; control for the full effect not named in the record; active = falling curve of any shape with a large fitted effect; inconclusive = falling curve, mostly with a smaller effect; inactive = flat or rising curve; cell line not stated here;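 further: intracellular cAMP measured with PDE inhibitor Ro 20-1724 present during compound exposure; potency means the concentration at half of the fitted maximal effect; on the % scale 0 is the no-effect control and ±100 the full control effect; nearly all actives have a fitted effect of over 65% in size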
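Cells, 2000/well, grown 16–24 h in DMEM 10% FBS with 0.5 mg/ml G418, then compounds plus […] (300 uM addition stock), 30 min at 37C. cAMP read by HTRF (cAMP-d2 and anti-cAMP antibody-K in lysis buffer) after 30 min RT.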
Sfp inh: Sfp phosphopantetheinyl transferase inhibition; Q9F4F7; Biochemical Sfp PPTase activity, qHTS; Potency, µM, for inactives: max response, negative = inhibition, actives largely listed as inhibitors; 3.5% of 310,000 active; active means well fitted inhibition curve with a large enough effect; inconclusive means small, poorly fitted or top-dose-only effect, or another doubt; inactive means no such curve, though single readings can be large or run the other way;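 further: the enzyme is Sfp with the accession as filed and its product quenches rhodamine fluorescence; potency means the concentration at half of the fitted maximal effect; 0% = enzyme reaction without inhibitor and -100% = no enzyme wells; top concentration of the series not given in the record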
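Reaction rates are the 30-min fluorescence difference (ex 525, em 598 nm) in wells containing 15 nM Sfp, 5 uM rhodamine-CoA and 12.5 uM BHQ-2-YbbR at pH 7.6 with 10 mM MgCl2.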
* marks the source's active call; other numbers are inactive results; ? = inconclusive; · = not tested or not shown; [ ] = dose if it differs, or a comment.

#	canonical_smiles	ClpP mod	TRPML1 inh	TRPV1 potentiator	gsp ag	Menin MLL FP FL	gsp antag	Sfp inh
1	COc1cc(/C=C2\SC(=S)N(NS(=O)(=O)c3ccccc3)C2=O)cc(OC)c1OC	·	-2	?	18%[15.4 µM]	17	-5%	79µM*
2	CCN(CC(=O)NCc1cccs1)C(=O)CCc1c[nH]c2ccccc12	·	11	-18	3%[15.4 µM]	-3.4	11%	13%
3	O=C(Nc1cccnc1)c1ccc(N2CCCC2)c([N+](=O)[O-])c1	·	9	-17	-1%[15.4 µM]	0.1	12%	10%
4	CCN(CC)S(=O)(=O)c1cccc(C(=O)OCc2cc(=O)n3nc(C)sc3n2)c1	-3.6%	-17	9	?	1.8	2%	24%
5	Cc1ccsc1C(=O)Nc1nccs1	·	-9	15	-5%[15.4 µM]	9.4	3%	13%
6	CC1CCCCN1CCCNC(=O)C1CCCN(c2ncnc3c2nc2n3CCCCC2)C1 (configuration not stated)	·	-16	10	-1%	-2.3	-1%	12%
7	O=C(COC(=O)c1cc(S(=O)(=O)N2CCCCC2)ccc1N1CCOCC1)NC1CCS(=O)(=O)C1 (configuration not stated)	·	-8	6	2%[15.4 µM]	-2.5	-2%	13%
8	CCc1ccc(-c2nc(CCl)cs2)cc1	-6.4%	-2	-17	5%	-1.0	10%	-1%
9	COc1ccc(Nc2nc(C)cc(-c3cc(-c4ccccc4)on3)n2)cc1	28µM*	-1	·	-11%	·	7%	·
10	O=C(N/N=C/c1ccncc1)c1cccc(NC(=O)c2ccccc2Cl)c1	·	8	18	-18%[15.4 µM]	-0.9	?	30%
11	COc1ccc(C(=O)NC(C)C2CC3CCC2C3)cc1 (configuration not stated)	-0.4%	-8	-33	8%[15.4 µM]	-0.2	-17%	5%
12	C/C(=N\Nc1ccc(C)c(Cl)c1)c1ccncc1	·	15	-1	-7%	6.2	-6%	-4%
13	Cc1nc2ccc(S(=O)(=O)NCC(=O)NCCN3CCCCCC3)cc2s1	-2.6%	-1	?	3%	-21	7%	-2%
14	NC(=O)c1c(NC(=O)C(=O)NCCCN2CCOCC2)sc2c1CCCC2	0.0%	5	10	?	·	5%	-5%
15	COC(=O)C1CCCCN1C(=O)c1ccc(OC2CCN(C(C)=O)CC2)c(OC)c1 (configuration not stated)	0.8%	10	-16	2%	·	7%	20%
16	Cc1cc(S(=O)(=O)N(Cc2ccc(C(C)C)cc2)CC2CCCO2)ccc1-n1cnnn1 (configuration not stated)	0.5%	16	0	?	0.9	-14%	10%
17	COC(=O)c1ccc(COc2ccc(C#N)cc2)o1	0.9%	13	19	12%[15.4 µM]	-0.7	6%	14%
18	COc1ccccc1C(=O)NCC(=O)OC(C)C(=O)N1CCOCC1 (configuration not stated)	1.1%	13	-4	4%[15.4 µM]	·	9%	·
19	Cc1ccc(O)c(NC(=O)c2cccc(NC(=O)c3ccco3)c2)c1	0.1%	9	-3	-39%[inhibitor]	0.6	9%	-8%
20	Cn1c(=O)c2[nH]c(SCCN)nc2n(C)c1=S	-1.5%	-18	·	-27%	·	2%	·
21	COc1ccc(-c2cc(C(=O)N/N=C(\C)c3cccnc3)c3ccccc3n2)c(OC)c1	-14%	-13	1	-16%	·	2%	15%
22	CC(C)c1nnc2c(N(C)S(=O)(=O)c3ccccc3)nc3ccccc3n12	-4.0%	-4	-18	?	0.7	-2%	1%
23	COCCCn1c(C)cc(C(=O)CN2c3cccc4cccc(c34)S2(=O)=O)c1C	-24%	7	2	24%	·	?	·
24	CC(=O)c1ccc2ccccc2c1OC(=O)c1ccncc1	40%	3	·	0%	·	·	·
25	COC(=O)[C@@]1(Cc2ccccc2)[C@H]2C(=O)N(Cc3ccccc3)C(=O)[C@H]2[C@H]2CN(C)C(=NCc3ccccc3)N21	-1.7%	5	·	·	·	9%	·

#	canonical_smiles	ClpP mod	TRPML1 inh	TRPV1 potentiator	gsp ag	Menin MLL FP FL	gsp antag	Sfp inh
26	Cc1cc(OC(C)C(=O)NCCCN2CCCC2=O)c2c(C)c(C)c(=O)oc2c1 (configuration not stated)	3.7%	-11	-4	29%	2.1	-1%	15%
27	CCN(CC(=O)Nc1c(F)cccc1F)C(=O)c1cc(S(=O)(=O)N(CC)CC)ccc1N1CCCCC1	-0.4%	29	-4	-36%	-0.1	8%	11%
28	CC(=O)Nc1ccc(S(=O)(=O)CCC#N)cc1	-1.4%	11	-12	18%	-1.8	9%	11%
29	CN1CCN(S(=O)(=O)c2ccc(Cl)s2)CC1	-0.3%	-12	4	-17%	·	17%	-7%
30	CCc1ccc(NC(=O)N2CCN(c3ccccc3)CC2)cc1	·	9	-23	-30%	-0.6	-6%	4%
31	Cc1ccc(Cn2ccc(NC(=O)c3cc(-c4ccco4)on3)n2)cc1	13%	7	-4	0%	13	8%	-25%
32	COc1cccc(CN(C)C(=O)c2ccc(S(=O)(=O)Nc3ccccc3F)cc2)c1OC	-5.0%	1	11	-27%	·	-2%	·
33	Cc1ccc2nc(NC(=O)C3CCN(S(=O)(=O)c4cccnc4)CC3)sc2c1	0.8%	5	·	-7%	0.6	?	-8%
34	O=C(NCCCN1CCOCC1)c1cc(-c2cccs2)on1	-11%	-1	4	-19%	5.4	-1%	8%
35	CCn1c(SCC(=O)OC)nc2cc(S(=O)(=O)N3CCOCC3)ccc21	1.3%	-10	0	-7%	·	1%	·
36	Cc1cccc(-c2nc(C#N)c(N3CCCCC3)o2)c1	3.4%	-16	-7	?	0.4	13%	12%
37	CCOc1cc2[nH]c(=S)n(CCC(=O)N3CCc4ccccc4C3)c(=O)c2cc1OCC	-2.4%	16	18	12%	-0.9	-2%	16%
38	COc1ccc(C(CNC(=O)c2cc(S(=O)(=O)N3CCN(c4ccccc4)CC3)ccc2Cl)N(C)C)cc1 (configuration not stated)	-1.2%	-8	·	-9%	·	-7%	·
39	C/C(=N\Nc1ccc(Cl)c(C(=O)O)c1)c1ccc[nH]1	·	-6	6	-8%[15.4 µM]	·	-11%	11%
40	CCN(CC(=O)Nc1c(F)cccc1F)C(=O)CSc1ccc(F)cc1	·	8	10	18%[15.4 µM]	·	10%	·
41	COc1ccc(NC(=O)c2csc(Cc3ccc(Cl)cc3)n2)cc1	-1.6%	11	-4	-1%	-0.6	10%	-12%
42	CCn1c(C)csc1=NC(=O)c1ccccc1O	-4.5%	17	·	-5%	-0.3	-8%	15%
43	CCOc1ccc(C(=O)NNC2CC(=O)N(CCc3ccccc3)C2=O)cc1OC (configuration not stated)	0.8%	-7	-5	27%	1.9	7%	-11%
44	COc1ccccc1C(O)(c1ccccc1)C(CN1CCOCC1)c1ccccc1 (configuration not stated)	-2.2%	?	-10	-14%	-13	?	0%
45	C[C@@H](NC(=O)c1nc[nH]c1C(=O)N[C@H](C)c1ccccc1)c1ccccc1	0.5%	6	7	?	·	-6%	·
46	Nc1nc(CSc2nc3ccccc3[nH]2)nc(N2CCOCC2)n1	-0.5%	-17	1	-47%[inhibitor]	-0.1	3%	-4%
47	CC1=NN(C(=O)c2ccccc2Cl)C(O)(c2cccnc2)C1 (configuration not stated)	·	-8	-4	-8%	1.3	13%	-10%
48	Cc1nc(-c2ccccc2)sc1C1(C)CC(c2ccccc2F)=NO1 (configuration not stated)	-22%	20	·	-53%[inhibitor]	·	-2%	·
49	COc1ccc(CNCCCO)cc1OC	0.6%	8	-9	-19%	0.2	4%	-15%
50	O=c1c(-c2cnn(-c3ccccc3)c2)coc2cc(O)ccc12	·	25	0	3%[15.4 µM]	0.0	-27%	0%

#	canonical_smiles	ClpP mod	TRPML1 inh	TRPV1 potentiator	gsp ag	Menin MLL FP FL	gsp antag	Sfp inh
51	Cc1ccc(C(C)(C)C)cc1S(=O)(=O)N1CC(=O)Nc2ccccc21	·	7	-6	-20%	-1.0	-2%	11%
52	O=C1c2cccc3cc(Br)cc(c23)C(=O)N1Nc1ccccc1	-1.8%	-1	7	5%	4.6	-23%	9%
53	CSc1nc(NCc2ccccc2)c2c3c(sc2n1)CN(C)CC3	14µM*	-6	7	7%	4.0	18%	?
54	CC1CCCN(CC(O)COC(c2ccccc2)c2ccccc2)C1 (configuration not stated)	·	-12	-5	5%	0.7	14%	22%
55	O=C(COC(=O)c1n[nH]c2ccccc12)NC(=O)NCc1ccco1	32µM*	-9	5	16%	0.9	-5%	-7%
56	Cc1ccc(C)c(C(=O)COC(=O)c2cc([N+](=O)[O-])ccc2NCCO)c1	0.7%	-6	2	-4%[15.4 µM]	5.3	10%	-2%
57	COCCOc1cc(Nc2nnc(C(F)(F)F)s2)c(Cl)cc1Cl	-1.2%	-9	-1	0%	1.2	?	10%
58	Cc1cccc(NS(=O)(=O)c2cccs2)n1	20µM*	-11	7	1%	1.3	1%	8%
59	CCCCOC(=O)Cn1c(=N)n(CCC)c2ccccc21	0.2%	44	-3	-36%[inhibitor]	1.1	6%	-10%
60	COc1ccccc1C(=O)Nc1nc(-c2ccc(S(=O)(=O)N3CCOCC3)cc2)cs1	-25%	7	-16	6%	-0.5	?	-15%
61	C#CC(C)(CC)NC(=O)c1cc(OC)c(OC)c(OC)c1 (configuration not stated)	-0.8%	18	1	5%	-1.1	8%	13%
62	O=C(C1CCN(S(=O)(=O)c2cnc[nH]2)CC1)N(CCc1ccccc1)Cc1ccccc1	-1.0%	37	-5	-17%	0.5	-8%	1%
63	CSCCC(NC(=O)c1ccco1)C(=O)OCC(=O)N(Cc1ccccc1)C(C)(C)C (configuration not stated)	4.7%	1	-9	10%[15.4 µM]	·	-5%	·
64	COC(=O)c1nn(-c2ccccc2)c(=O)cc1Sc1ccc(Cl)cc1	·	-19	-23	-27%	-5.0	3%	23%
65	O=C(O)c1cc(-c2ccc3ccccc3c2)nc2ccc(F)cc12	3.7%	15	15	12%	-0.3	-29%	15%
66	Cc1ccccc1CCNC(=O)C1CCC(=O)N(CCc2cccc(F)c2)C1 (configuration not stated)	-1.4%	13	-7	-31%[inhibitor]	2.9	-6%	18%
